# Yeast UUG start = alters start codon recognition fidelity in yeast; 0.13% of 350,000 active; S. cerevisiae UUG-firefly luciferase reporter, luminescence/redox ratio; activity score, % at 18.7 µM;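 active = replicate mean at a twofold rise or more, about +100% in these data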;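 note: firefly luciferase made from a UUG start codon reports start codon fidelity; reporter light over untreated wells divided by growth signal over untreated wells; some hits fall short of that in this replicate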
# HIV Env fusion = HIV envelope-mediated fusion inhibition; HeLa-JRFL Env/CEM21 cell fusion, luciferase; inhibition, % at 12.3 µM; 1.1% of 360,000 active; AID 651610;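 active = mean replicate inhibition score of at least 50 and every replicate individually at or above 50; inconclusive = only one of the two criteria met; inactive = mean below 50 and not all replicates reaching 50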;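 note: 0% = plate neutral controls and 100% = maraviroc near 300 nM; one replicate is shown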
# * = called active by the depositor; u = inconclusive; [ ] = dose if it differs, or a comment. This is a subset; rates above refer to the full screens.
SMILES,Yeast UUG start,HIV Env fusion
CC(C)CC#Cc1ccc2c(c1)O[C@@H](CN(C)Cc1ccccn1)[C@H](C)CN([C@@H](C)CO)S2(=O)=O,-19,4[16.7 µM]
C/C=C/c1ccc2c(c1)O[C@H](CN(C)C(=O)Cc1ccccc1)[C@H](C)CN([C@@H](C)CO)S2(=O)=O,12,28[16.7 µM]
C[C@H](CO)N1C[C@H](C)[C@H](CN(C)S(=O)(=O)c2ccc(F)cc2)Oc2ccc(NC(=O)Nc3ccc(F)cc3)cc2CC1=O,8,-31[16.7 µM]
CC(C)NC(=O)Nc1ccc2c(c1)C(=O)N([C@@H](C)CO)C[C@@H](C)[C@H](CN(C)S(=O)(=O)c1ccc(F)cc1)OCCCC[C@@H](C)O2,33,-51[16.7 µM]
O=C(C[C@@H]1C[C@H]2c3cc(NS(=O)(=O)c4ccccc4)ccc3O[C@H]2[C@@H](CO)O1)N1CCCCC1,4,20[16.7 µM]
C[C@H]1CN([C@@H](C)CO)C(=O)c2cccc(NC(=O)c3ccncc3)c2O[C@H]1CN(C)Cc1ccncc1,16,7[16.7 µM]
Cc1ccc(S(=O)(=O)N(C)C[C@H]2Oc3ccc(NC(=O)Cc4cn(C)c5ccccc45)cc3CC(=O)N([C@H](C)CO)C[C@H]2C)cc1,-10,-6[16.7 µM]
C[C@@H]1CCCCO[C@H](CN(C)Cc2ccc(C(F)(F)F)cc2)[C@@H](C)CN([C@@H](C)CO)C(=O)c2cc(NS(=O)(=O)c3ccc(F)cc3)ccc2O1,13,33[16.7 µM]
CCCNC(=O)C[C@@H]1CC[C@H]2[C@H](COc3ccc(NC(=O)Nc4ccccc4)cc3C(=O)N2C)O1,7,21[16.7 µM]
COc1ccc(NC(=O)N(C)C[C@@H]2OCCCC[C@@H](C)Oc3ccc(NC(=O)Nc4ccc5c(c4)OCO5)cc3C(=O)N([C@H](C)CO)C[C@@H]2C)cc1,11,7[16.7 µM]
Cc1noc(C)c1NC(=O)Nc1cccc2c1O[C@@H](CN(C)C(=O)Nc1cccc3ccccc13)[C@H](C)CN([C@H](C)CO)C2=O,44,3[16.7 µM]
COc1ccc(S(=O)(=O)Nc2ccc3c(c2)CC(=O)N([C@@H](C)CO)C[C@@H](C)[C@H](CN(C)Cc2ccccc2)O3)cc1,18,-5[16.7 µM]
O=C(C[C@@H]1C=C[C@@H](NC(=O)Nc2ccc(C(F)(F)F)cc2)[C@H](CO)O1)NCc1cccc(F)c1,2,10[16.7 µM]
C[C@@H]1CN([C@H](C)CO)C(=O)Cc2cc(NC(=O)CCCN(C)C)ccc2O[C@@H]1CN(C)Cc1ccc(Oc2ccccc2)cc1,-24,-1[16.7 µM]
C[C@H]1CN([C@@H](C)CO)C(=O)c2cccc(NC(=O)C3CC3)c2O[C@@H]1CN(C)S(=O)(=O)c1ccc(F)cc1,-5,-16[16.7 µM]
Cc1ccc(-c2ccc3c(c2)O[C@@H](CN(C)Cc2cccc(C(=O)O)c2)[C@@H](C)CN([C@@H](C)CO)S3(=O)=O)cc1,16,-28[16.7 µM]
C[C@H](CO)N1C[C@H](C)[C@H](CN(C)C(=O)Nc2ccccc2)OCCCC[C@H](C)Oc2ccc(NC(=O)Nc3ccc4c(c3)OCO4)cc2C1=O,0,-23[16.7 µM]
CC(C)NC(=O)Nc1ccc2c(c1)C(=O)N([C@@H](C)CO)C[C@@H](C)[C@H](CN(C)Cc1ccc(C(=O)O)cc1)OCCCC[C@H](C)O2,44,13[16.7 µM]
CC(C)C#Cc1ccc2c(c1)O[C@H](CN(C)S(C)(=O)=O)[C@@H](C)CN([C@H](C)CO)S2(=O)=O,10,5[16.7 µM]
CCCNC(=O)C[C@H]1C[C@H]2c3cc(NC(=O)Nc4ccc(F)cc4)ccc3O[C@H]2[C@H](CO)O1,-15,-11[16.7 µM]
C[C@@H]1CN([C@@H](C)CO)C(=O)c2cc(NC(=O)Nc3ccccc3)ccc2O[C@H]1CN(C)C(=O)Nc1ccccc1,-6,-10[16.7 µM]
COc1ccc(NC(=O)Nc2ccc3c(c2)C(=O)N([C@H](C)CO)C[C@H](C)[C@@H](CN(C)CC2CCCCC2)O3)cc1,4,-21[16.7 µM]
O=C(Nc1ccc2c(c1)[C@@H]1C[C@@H](CC(=O)N3CCc4ccccc4C3)O[C@@H](CO)[C@@H]1O2)Nc1ccccc1F,61*,-13[16.7 µM]
CCCC(=O)Nc1ccc2c(c1)OC[C@H](C)N(C(=O)CC)C[C@H](C)[C@H](OC)CN(C)C2=O,-5,11[16.7 µM]
O=C(Cc1ccncc1)Nc1ccc2c(c1)[C@@H]1C[C@H](CC(=O)NC3CCCCC3)O[C@@H](CO)[C@@H]1O2,3,-3[16.7 µM]

# More structures follow:
SMILES,Yeast UUG start,HIV Env fusion
COc1cccc(-c2cn(CC[C@@H]3CC[C@H](NC(=O)CN(C)C)[C@H](CO)O3)nn2)c1,5,6[16.7 µM]
C[C@H]1CN([C@@H](C)CO)C(=O)c2cc(C#CCc3ccccc3)cnc2O[C@@H]1CN(C)Cc1ccccn1,44,13[16.7 µM]
CNC[C@H]1OCCCC[C@@H](C)Oc2ccc(NS(=O)(=O)c3cn(C)cn3)cc2C(=O)N([C@@H](C)CO)C[C@H]1C,6,3[16.7 µM]
Cc1ccc(S(=O)(=O)N(C)C[C@H]2OCCCC[C@H](C)Oc3ccc(NC(=O)NC4CCCCC4)cc3C(=O)N([C@@H](C)CO)C[C@@H]2C)cc1,20,2[16.7 µM]
C[C@H](CO)N1C[C@H](C)[C@H](CN(C)S(=O)(=O)c2ccccc2)Oc2ccc(NC(=O)Nc3ccccc3)cc2CC1=O,14,80*[16.7 µM]
C[C@@H]1CN([C@@H](C)CO)C(=O)c2cccc(NS(=O)(=O)c3cn(C)cn3)c2O[C@@H]1CN(C)C(=O)Nc1ccc(F)cc1,2,-12[16.7 µM]
C[C@@H]1CCCCO[C@@H](CN(C)S(=O)(=O)c2ccc(F)cc2)[C@H](C)CN([C@H](C)CO)C(=O)c2cc(NC(=O)Nc3ccc(C(F)(F)F)cc3)ccc2O1,-13,68*[16.7 µM]
O=C(C[C@@H]1C=C[C@@H](NC(=O)CN2CCOCC2)[C@@H](CO)O1)NC1CCCCC1,1,-8[16.7 µM]
COCC(=O)Nc1ccc2c(c1)C(=O)N(C)[C@H]1CC[C@@H](CC(=O)NCc3ccccc3Cl)O[C@@H]1CO2,15,4[16.7 µM]
O=C(Nc1ccc2c(c1)[C@@H]1C[C@@H](CC(=O)N3CCCCC3)O[C@@H](CO)[C@@H]1O2)c1cccnc1,0,0[16.7 µM]
CN1CCN(C(=O)C[C@@H]2CC[C@H]3[C@@H](COC[C@@H](O)CN3S(=O)(=O)c3cccc(F)c3)O2)CC1,25,-6[16.7 µM]
CCCC#Cc1cnc2c(c1)C(=O)N([C@H](C)CO)C[C@H](C)[C@H](CN(C)C(=O)Cc1ccncc1)O2,-2,18[16.7 µM]
C[C@@H]1CCCCO[C@@H](CN(C)S(=O)(=O)c2ccccc2)[C@@H](C)CN([C@@H](C)CO)C(=O)c2cc(NS(=O)(=O)c3cn(C)cn3)ccc2O1,-9,7[16.7 µM]
CC(=O)N(C)C[C@@H]1Oc2cc(C#Cc3ccccc3)ccc2S(=O)(=O)N([C@@H](C)CO)C[C@@H]1C,3,8[16.7 µM]
C[C@H]1CN([C@@H](C)CO)C(=O)c2cc(NC(=O)NC3CCCCC3)ccc2O[C@@H]1CN(C)C(=O)NC1CCCCC1,-5,-3[16.7 µM]
CN1C(=O)c2cc(NC(=O)c3cc(F)cc(F)c3)ccc2OC[C@@H]2O[C@@H](CC(=O)O)CC[C@H]21,-7,-9[16.7 µM]
CO[C@H]1CN(C)C(=O)c2cc(NS(=O)(=O)c3ccccc3C)ccc2OC[C@@H](C)N(C)C[C@H]1C,-10,0[16.7 µM]
Cc1noc(C)c1S(=O)(=O)Nc1ccc2c(c1)C(=O)N([C@@H](C)CO)C[C@@H](C)[C@H](CN(C)C(=O)c1ccncc1)OCCCC[C@H](C)O2,7,9[16.7 µM]
Cc1noc(C)c1S(=O)(=O)N(C)C[C@H]1OCCCC[C@@H](C)Oc2ccc(NC(=O)Nc3cccc4ccccc34)cc2C(=O)N([C@@H](C)CO)C[C@H]1C,-8,-30[16.7 µM]
C[C@@H]1CCCCO[C@H](CN(C)C(=O)Nc2ccc(F)cc2)[C@@H](C)CN([C@H](C)CO)C(=O)c2cc(NS(=O)(=O)c3ccc(Cl)cc3)ccc2O1,3,-87[16.7 µM]
C[C@H](O)C#Cc1cnc2c(c1)C(=O)N([C@@H](C)CO)C[C@H](C)[C@@H](CN(C)Cc1ccc(-c3ccccc3)cc1)O2,4,12[16.7 µM]
COCC#Cc1cnc2c(c1)C(=O)N([C@H](C)CO)C[C@@H](C)[C@H](CN(C)C(=O)c1cnccn1)O2,-9,-19[16.7 µM]
CS(=O)(=O)Nc1ccc2c(c1)[C@@H]1C[C@H](CC(=O)NCc3ccncc3)O[C@@H](CO)[C@@H]1O2,-17,-11[16.7 µM]
COc1ccc(NC(=O)Nc2ccc3c(c2)CC(=O)N([C@@H](C)CO)C[C@H](C)[C@@H](CN(C)Cc2ccccc2)O3)cc1,3,12[16.7 µM]
CNC[C@@H]1Oc2ncc(-c3ccccc3C)cc2C(=O)N([C@@H](C)CO)C[C@@H]1C,22,-21[16.7 µM]

# Remaining list, next part
SMILES,Yeast UUG start,HIV Env fusion
C[C@@H]1CN([C@H](C)CO)S(=O)(=O)c2ccc(/C=C/c3ccccc3)cc2O[C@@H]1CN(C)C(=O)CN1CCOCC1,2,-13[16.7 µM]
Cc1ccc(S(=O)(=O)Nc2ccc3c(c2)C(=O)N([C@@H](C)CO)C[C@H](C)[C@H](CN(C)S(=O)(=O)c2ccccc2)OCCCC[C@H](C)O3)cc1,-12,u
C[C@@H]1CCCCO[C@@H](CN(C)Cc2ccccc2)[C@H](C)CN([C@H](C)CO)C(=O)c2cc(NC(=O)CCCN(C)C)ccc2O1,5,6[16.7 µM]
CCCN(C)C[C@@H]1Oc2cc(-c3ccc(C)cc3)ccc2S(=O)(=O)N([C@H](C)CO)C[C@@H]1C,5,10[16.7 µM]
N#C[C@@H]1[C@H](c2ccc(-c3cccc(F)c3)cc2)[C@H](CO)N1C(=O)NC1CCCC1,-3,65*[16.7 µM]
CN1C(=O)c2cc(NC(=O)Cc3cccs3)ccc2OC[C@H]2O[C@H](CC(=O)NCC3CC3)CC[C@H]21,4,11[16.7 µM]
C[C@H]1CN([C@@H](C)CO)C(=O)Cc2cc(NS(=O)(=O)c3cccs3)ccc2O[C@@H]1CN(C)S(=O)(=O)c1ccc(F)cc1,-1,-1[16.7 µM]
C[C@@H]1CN([C@@H](C)CO)C(=O)c2cc(NS(=O)(=O)c3ccc(F)cc3)ccc2O[C@@H]1CN(C)S(=O)(=O)c1ccccc1,18,1[16.7 µM]
N#C[C@H]1[C@H](c2ccc(C#CC3CCCCC3)cc2)[C@@H](CO)N1S(=O)(=O)c1ccccc1,-16,7[16.7 µM]
C[C@@H]1CN([C@@H](C)CO)C(=O)c2cccc(NC(=O)c3cnccn3)c2O[C@@H]1CN(C)C(=O)Nc1ccc(F)cc1,12,-4[16.7 µM]
O=C(C[C@@H]1CC[C@@H]2[C@H](COC[C@@H](O)CN2C(=O)Nc2ccc(Cl)c(Cl)c2)O1)NC1CCC1,-2,6[16.7 µM]
C[C@@H]1CN([C@H](C)CO)C(=O)c2cc(C#Cc3cccc(F)c3)cnc2O[C@H]1CN(C)CC1CCOCC1,-5,-56[16.7 µM]
CCNC(=O)C[C@@H]1C=C[C@H](NC(=O)C2CCC2)[C@H](CO)O1,2,-27[16.7 µM]
C[C@@H]1CN([C@H](C)CO)C(=O)c2cc(NC(=O)CCC(F)(F)F)ccc2O[C@@H](C)CCCCO[C@H]1CN(C)C(=O)Nc1ccc(C(F)(F)F)cc1,-13,36[16.7 µM]
CCC(=O)N(C)C[C@H]1Oc2ncc(C#CC(C)(C)O)cc2C(=O)N([C@H](C)CO)C[C@@H]1C,3,2[16.7 µM]
C[C@H](CO)N1C[C@H](C)[C@@H](CN(C)C(=O)c2ccccc2)OCCCC[C@H](C)Oc2ccc(NC(=O)C3CCCCC3)cc2C1=O,8,-7[16.7 µM]
CC(C)NC(=O)N(C)C[C@@H]1OCCCC[C@H](C)Oc2ccc(NC(=O)Nc3ccc(F)cc3)cc2C(=O)N([C@@H](C)CO)C[C@H]1C,6,-71[16.7 µM]
N#C[C@@H]1[C@H](c2ccc(C#CCC3CCCC3)cc2)[C@H](CO)N1C(=O)CN1CCOCC1,8,-8[16.7 µM]

# No new results follow: an excerpt of the list.
SMILES,Yeast UUG start,HIV Env fusion
N#C[C@H]1[C@H](c2ccc(C#CC3CCCCC3)cc2)[C@@H](CO)N1S(=O)(=O)c1ccccc1,-16,7[16.7 µM]
C[C@@H]1CN([C@@H](C)CO)C(=O)c2cccc(NC(=O)c3cnccn3)c2O[C@@H]1CN(C)C(=O)Nc1ccc(F)cc1,12,-4[16.7 µM]
O=C(C[C@@H]1CC[C@@H]2[C@H](COC[C@@H](O)CN2C(=O)Nc2ccc(Cl)c(Cl)c2)O1)NC1CCC1,-2,6[16.7 µM]
C[C@@H]1CN([C@H](C)CO)C(=O)c2cc(C#Cc3cccc(F)c3)cnc2O[C@H]1CN(C)CC1CCOCC1,-5,-56[16.7 µM]
CCNC(=O)C[C@@H]1C=C[C@H](NC(=O)C2CCC2)[C@H](CO)O1,2,-27[16.7 µM]
C[C@@H]1CN([C@H](C)CO)C(=O)c2cc(NC(=O)CCC(F)(F)F)ccc2O[C@@H](C)CCCCO[C@H]1CN(C)C(=O)Nc1ccc(C(F)(F)F)cc1,-13,36[16.7 µM]
CCC(=O)N(C)C[C@H]1Oc2ncc(C#CC(C)(C)O)cc2C(=O)N([C@H](C)CO)C[C@@H]1C,3,2[16.7 µM]
C[C@H](CO)N1C[C@H](C)[C@@H](CN(C)C(=O)c2ccccc2)OCCCC[C@H](C)Oc2ccc(NC(=O)C3CCCCC3)cc2C1=O,8,-7[16.7 µM]
